KCNQ2 inh – KCNQ2 potassium channel inhibitors, primary screen, cell-based, CHO-K1, FluxOR thallium flux, B-score (AID 2156); B-score at 10 µM; 20 min; stronger effect = lower value; only compounds with negative scores are shown here; some inactives read as strong as hits; 1.1% of 310,000 active; O88943;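 active = fluorescence ratio B-score at most minus 3 library SDs, with starting brightness B-score within 2 library SDs, cut at about -5.5 in these data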
Target sequence (O88943 whole entry, looked up): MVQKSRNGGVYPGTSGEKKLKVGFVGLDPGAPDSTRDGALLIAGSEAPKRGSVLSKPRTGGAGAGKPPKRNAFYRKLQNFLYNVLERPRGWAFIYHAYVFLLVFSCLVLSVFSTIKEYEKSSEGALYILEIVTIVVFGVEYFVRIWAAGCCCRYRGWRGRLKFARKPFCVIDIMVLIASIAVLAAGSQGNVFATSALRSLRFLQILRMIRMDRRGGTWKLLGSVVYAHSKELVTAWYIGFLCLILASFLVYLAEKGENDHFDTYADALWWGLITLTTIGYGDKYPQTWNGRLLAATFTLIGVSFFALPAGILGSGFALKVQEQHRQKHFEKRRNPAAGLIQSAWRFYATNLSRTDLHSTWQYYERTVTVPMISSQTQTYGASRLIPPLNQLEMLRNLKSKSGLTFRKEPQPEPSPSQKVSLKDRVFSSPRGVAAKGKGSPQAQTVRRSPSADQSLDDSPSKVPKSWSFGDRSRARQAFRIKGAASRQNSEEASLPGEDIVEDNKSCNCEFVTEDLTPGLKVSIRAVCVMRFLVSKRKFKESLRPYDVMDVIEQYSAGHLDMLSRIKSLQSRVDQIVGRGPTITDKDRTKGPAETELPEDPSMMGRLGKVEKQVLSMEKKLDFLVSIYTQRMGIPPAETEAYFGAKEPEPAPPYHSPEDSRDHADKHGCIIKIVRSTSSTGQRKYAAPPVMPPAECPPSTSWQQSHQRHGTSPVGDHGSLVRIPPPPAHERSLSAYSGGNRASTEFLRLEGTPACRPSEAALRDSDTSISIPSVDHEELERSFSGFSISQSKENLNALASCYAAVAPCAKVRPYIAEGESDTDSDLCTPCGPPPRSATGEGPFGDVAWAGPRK
KCNQ2 inh baseline – recorded beside KCNQ2 inh, whose call it bears; B-score; measured here: initial fluorescence intensity artifact check;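 brightness before thallium and not channel activity; 0 = typical well and far values either way flag optical interference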
An asterisk follows results filed as active; i = inactive. Some of the compounds tested, so the mix of outcomes need not match the whole.

Values run as follows: KCNQ2 inh	KCNQ2 inh baseline
O=C(c1ccc(Cn2cc(Cl)c([N+](=O)[O-])n2)cc1)N1CCN(Cc2ccccc2)CC1
    i	-0.18
Cc1cc(C)cc(OC2CCCCC2NS(=O)(=O)c2ccccc2)c1 (configuration not stated)
    i	-0.03
O=C(c1cccc(F)c1)N1CCN(S(=O)(=O)c2ccc(C(F)(F)F)cc2)CC1
    i	1.7
CCc1ccc(N(C(=O)c2ccoc2C)C(C(=O)NC2CCCC2)c2ccc(OC)cc2)cc1 (configuration not stated)
    i	0.25
FC(F)(F)c1ccc(N2CCN(c3ncnc4c3nnn4Cc3ccccc3Cl)CC2)cc1
    i	1.9
O=[N+]([O-])c1cccnc1S(=O)(=O)c1ccccc1
    i	0.8
COc1ccc(CCNC(=O)C2CC(c3cc(C(F)(F)F)cc(C(F)(F)F)c3)=NO2)cc1 (configuration not stated)
    i	-1.1
Cc1cccc(N/N=C(\C=N\N)C(=O)c2ccc(Br)cc2)c1
    i	-0.17
N#C/C(=N/O)c1nc(-c2ccc(F)cc2)cs1
    i	3.3
COC(=O)c1cccc(N(C(=O)c2cnccn2)C(C(=O)NC2CCCCC2)c2cn(C)nc2C)c1 (configuration not stated)
    i	-0.28
CCc1ccc(NCc2nc3ccccc3c(=O)[nH]2)cc1
    i	0.35
COc1c(C)cc(C(=O)C2CCCN(C(=O)c3cccc(F)c3)C2)cc1C (configuration not stated)
    i	-0.68
CCCCOc1ccc(S(=O)(=O)N2CCN(c3ccc(N4CCN(CC)CC4)nn3)CC2)cc1
    i	1.5
Cc1ccc(NC(=O)CSc2nnc(-c3ccco3)n2N)cc1F
    i	0.71
O=C(c1nn(Cc2ccccc2)c(=O)c2ccccc12)N1CCN(c2ccccn2)CC1
    i	-0.41
COc1ccc(C2C(C(C)=O)=C(O)C(=O)N2CCCn2ccnc2)cc1 (configuration not stated)
    i	-0.26
O=C(Cc1cccs1)Nc1nc(-c2ccc(F)cc2F)cs1
    i	-0.33
COc1ccc(-c2nc(NC(=O)C3CCN(c4nc5ccccc5o4)CC3)sc2C)cc1
    i	-0.53
Cc1cc(C)nc(NS(=O)(=O)c2ccc(CC(C)C)cc2)c1
    i	-0.49
NS(=O)(=O)c1cccc(NS(=O)(=O)c2ccc(/C=C/C(=O)OCC(=O)c3ccc(Br)cc3)cc2)c1
    i	0.42
CNC(=O)NNC(=O)c1onc(-c2c(Cl)cccc2Cl)c1C(=O)OC
    i	-0.08
CN(C)c1ccc(NC(=O)Cn2c(=O)n(Cc3ccccc3)c(=O)c3ccccc32)cc1
    i	-0.32
Cn1c(COc2ccccc2)nnc1SCCSc1nnc(COc2ccccc2)n1C
    i	0.02
COc1cc(/C=N/N(c2ccccc2)c2ccccc2)ccc1O
    i	0.26
CCc1c(C)nc(SCC(=O)NC2CCCC2)[nH]c1=O
    i	0.98
CC(C)Cn1c(N)c(C=O)c(=O)n(C)c1=O
    i	0.42
O=C1CN(C(=O)c2ccco2)C(c2ccccc2)c2cc(Cl)ccc2N1 (configuration not stated)
    i	-0.05
O=C1c2cccc3cc([N+](=O)[O-])cc(c23)C(=O)N1CC1CCCO1 (configuration not stated)
    i	-1.7
Cc1ccc(NS(=O)(=O)c2cc3c4c(c2)CC(=O)N4CCC3)cc1C
    i	-0.9
Cn1c(-c2ccccc2)cnc1NCc1cccc([N+](=O)[O-])c1
    i	-0.55
Cc1cc(C(=O)NNC(=S)NC2CCCCC2)cs1
    i	0.94
CCCOc1ccc(N2C(=O)CC(N(CCc3ccc(OC)cc3)C(=O)c3cccc(F)c3)C2=O)cc1 (configuration not stated)
    i	0.69
CSCCCNC(=S)Nc1ccc(N2CCOCC2)cc1
    i	-0.6
O=C(NNC(=O)c1ccccc1O)c1ccc(Cl)cc1
    i	0.59
CC(=O)Nc1nc(C)c(C(C)(C)C)s1
    i	-0.36
CSc1nc2sc3c(c2c(=O)n1CC(C)C)CC(C)(C)OC3
    i	-0.82
CC(C)OC(=O)CSc1nnc2n1C(C)(C)Cc1ccccc1-2
    i	0.5
COc1cc(C)c(COc2ncnc3ccccc23)cc1OC
    i	-1.4
Cc1[nH]n2c(=O)cc(Cc3ccccc3)nc2c1C#N
    i	-2
COc1ccc(NC(=S)NCc2cccnc2)cc1OC
    i	-1.1
O=C(O)COc1ccccc1/C=N/NC(=O)CSc1nc2ccccc2c(=O)n1-c1ccc(Cl)cc1
    i	1.4
CCOC(=O)c1nn(-c2ccc(C)cc2)c(=O)cc1OCC(=O)Nc1ccc(OC)cc1
    i	0.1
CCOC(=O)c1c(O)c2c(n(Cc3ccco3)c1=O)CCCC2
    i	3
O=C1NCCN1c1ccc(CN2CCN(C3CCCCC3)C(CCO)C2)cc1 (configuration not stated)
    i	-1.3
CCN(CCNC(=O)c1ccc(CSc2nc3ccncc3[nH]2)cc1)c1ccccc1
    i	1
CCOc1ccc(CN2CCNC(=O)C2CC(=O)NCCCOc2cccnc2)cc1 (configuration not stated)
    i	1.5
O=C(CCN1C(=O)c2ccc([N+](=O)[O-])cc2C1=O)Nc1ccc(O)cc1C(=O)O
    i	0.06
O=C(NCCC(=O)N1CCN(C(=O)c2ccco2)CC1)c1ccc(Br)cc1
    i	-1.8
Oc1ccc(-c2nc3ccccc3nc2-c2ccccc2)cc1
    i	-0.02
CCOC(=O)C1(CCc2ccccc2)CCN(Cc2c(O)cccc2OC)CC1
    i	-0.72

Some of the entries so far, with values ahead of the structure.
KCNQ2 inh,KCNQ2 inh baseline,compound
i,-1.3,O=C1NCCN1c1ccc(CN2CCN(C3CCCCC3)C(CCO)C2)cc1 (configuration not stated)
i,1,CCN(CCNC(=O)c1ccc(CSc2nc3ccncc3[nH]2)cc1)c1ccccc1
i,1.5,CCOc1ccc(CN2CCNC(=O)C2CC(=O)NCCCOc2cccnc2)cc1 (configuration not stated)
i,0.06,O=C(CCN1C(=O)c2ccc([N+](=O)[O-])cc2C1=O)Nc1ccc(O)cc1C(=O)O

The results go on:
Values run as follows: KCNQ2 inh	KCNQ2 inh baseline
COc1ccc(C(=O)NC(=S)Nc2cccc(S(=O)(=O)N3CCOCC3)c2)cc1
    i	-0.02
CC1COc2ccccc2N1C(=O)c1ccccc1Cl (configuration not stated)
    i	0.82
Cn1c(=O)[nH]c(=O)c2c1nc1n2CCCN1CCc1ccccc1
    i	-0.21
COc1ccc(C(=O)CSc2nnc(CNC(=O)c3ccc(S(=O)(=O)N(C)C)cc3)o2)cc1
    i	0.08
O=C(Nc1ccc(F)cc1F)c1c(C(F)(F)F)ccnc1Oc1ccc(Cl)cc1
    i	-0.14
O=C(c1cccc2ccccc12)N1CCN(c2ccccc2F)CC1
    i	-2.2
COc1ccc(CN2CCNC(=O)C2CC(=O)NCCc2cnccn2)cc1C (configuration not stated)
    i	1.6
COc1ccc(OCC(O)CN2CCN(c3ncccn3)CC2)cc1 (configuration not stated)
    i	0.3
Cc1cc(N2CCOCC2)nc(-c2ccc(Br)cc2)n1
    i	0.88
C/C(=N\NC(=S)NCc1ccccc1)c1ccc(C)o1
    i	-0.57
CCCCCn1c(C)c2c(OCC)cccc(=O)c2c1C
    i	-1
CCOC(=O)c1ccc(NC2=CC(=O)C(=O)c3ccccc32)cc1
    i	0.09
CCN(c1ccc(OC)cc1)S(=O)(=O)c1nnc(NC(=O)C2CCCCC2)s1
    i	2.7
CC(C)(C)CC(=O)Nc1nnc(SCC(=O)NC2CCCC2)s1
    i	-0.17
O=C(O)c1cc(NCc2ccccc2C(F)(F)F)ccc1N1CCOCC1
    i	0.18
CCc1ccc(C(=O)COC(=O)CNC(=O)c2ccco2)cc1
    i	0.14
O=C(NC1CCCC1)C1CCN(C(=O)Nc2cccc(Cl)c2)CC1
    i	-1.5
N#CCSc1nc2ccc(N3CCCCC3)cc2c(=O)n1Cc1ccccc1
    i	0.37
COc1ccc(OCCSc2nc(C)nc3ccccc23)cc1
    i	0.47
Cc1cc(NC(=O)c2c(F)cccc2F)n(-c2nc3ccccc3[nH]2)n1
    i	0.05

Full records from above. Order of screens: KCNQ2 inh | KCNQ2 inh baseline
N#CCSc1nc2ccc(N3CCCCC3)cc2c(=O)n1Cc1ccccc1 in the list: i | 0.37
CCN(c1ccc(OC)cc1)S(=O)(=O)c1nnc(NC(=O)C2CCCCC2)s1 in the list: i | 2.7
CCc1ccc(C(=O)COC(=O)CNC(=O)c2ccco2)cc1 in the list: i | 0.14

A few values from the results shown:
KCNQ2 inh baseline, Cc1cc(NC(=O)c2c(F)cccc2F)n(-c2nc3ccccc3[nH]2)n1 is entered as 0.05
KCNQ2 inh baseline, CCOC(=O)c1ccc(NC2=CC(=O)C(=O)c3ccccc32)cc1 is entered as 0.09

New compounds follow.
SMILES | KCNQ2 inh | KCNQ2 inh baseline
O=S(=O)(Nc1ccc2c(c1)OCCO2)c1c(F)cccc1F | i | -2.2
O=C(Nc1cccc(C(F)(F)F)c1)c1cccnc1N1CCN(CCO)CC1 | i | -0.93
Cc1ccc(S(=O)(=O)N2CCCC2C(=O)NCCc2nc3ccccc3[nH]2)cc1 (configuration not stated) | i | 2.2
COCCNC(=O)c1ccc(CS(=O)(=O)c2c(Cl)cccc2Cl)o1 | i | -0.26
CCOC(=O)[C@@H]1[C@H]2COc3ccccc3[C@@H]2N2C(=O)N(c3ccc(Cl)cc3)C(=O)[C@@]12C | i | 0.22
CCOCCSc1n[nH]c(=O)n1CCc1ccccc1 | i | -0.69
CCCCc1nc2cc(C(=O)N3CCNC(=O)C3)ccc2o1 | i | -0.05
C=CCn1c(SCCCc2ccccc2)nc2c1c(=O)[nH]c(=O)n2C | i | 0.37
C=CCOc1cccc(C2C(C(=O)c3ccc(C)o3)=C(O)C(=O)N2c2nccs2)c1 (configuration not stated) | i | 17
NC(=O)Cn1nnc(-c2ccccc2NC(=O)c2cnccn2)n1 | i | 1.3
CCn1c(C)cc(=S)c2ccccc21 | i | 1.6
Cc1ccc(NC(=S)NC2CCCCC2)cc1S(=O)(=O)N(C)C | i | -0.5
O=C(C(Sc1ccccc1)c1ccc(Br)cc1)N1CCOCC1 (configuration not stated) | i | -0.81
CCC(C)N(C(=O)c1csnn1)C(C(=O)NC1CCCC1)c1ccc(F)cc1 (configuration not stated) | i | -3.1
COc1cccc(NC(=O)COC(=O)CCOc2ccccc2OC)c1 | i | 1.3
COC(=O)c1ccc(/C=N/OCC(=O)NC2CCCCCCC2)cc1 | i | 1.8
CN(C)C(=O)c1ccc(NC(=O)c2cncc(Br)c2)cc1 | i | -0.04
Cc1ccccc1C(=O)Oc1cccc(Nc2ncnc3ccccc23)c1 | -9.6* | -0.03*
Cc1cccc(N2CCN(C(=O)c3ccc4c(c3)c(C)c(C)n4C)CC2C)c1 (configuration not stated) | -6.1* | -0.05*
Cc1ccc(C2CC(c3ccc(Cl)cc3)=NNC2=O)cc1 (configuration not stated) | i | 0.2
Cc1ccc(NC(=O)C(C)OC(=O)/C=C/c2ccccc2)cc1S(=O)(=O)N1CCOCC1 (configuration not stated) | i | 3.8
COc1ccnc(N=CNOCc2cccc(C(F)(F)F)c2)c1C#N | i | -1.9
COc1ccc(NC(=O)C23CC4CC(C2)CC(n2cnc(Br)n2)(C4)C3)c(OC)c1 | i | 0.67
COc1ccc(C(=O)Nc2ccc(S(=O)(=O)N3CCOCC3)cc2)cc1[N+](=O)[O-] | i | 1.2
O=C(NCCc1ccc(Cl)cc1)c1cccc(NC2=NC3CS(=O)(=O)CC3S2)c1 (configuration not stated) | i | 2.1
CCNC(=S)Nc1ccc(C)c(Cl)c1 | i | -0.39
CCOCCOCCC(C(=O)O)P(=O)(c1ccccc1)c1ccccc1 (configuration not stated) | i | 0.67
O=C(NC1=NCCS1)c1ccc(Cl)c(S(=O)(=O)N2CCCCCC2)c1 | i | 1.9
CC1(C)Cc2nc3sc4c(SCC(=O)NCc5ccccc5)ncnc4c3cc2CO1 | i | 0.07
Cc1ccc(C(O)Cn2nc(C)cc2C)cc1 (configuration not stated) | i | -0.62
O=C(CN1CCC(C(=O)O)CC1)Nc1ccccc1Oc1ccccc1 | i | -0.25
CCCN(CCC)C(=O)CC(c1ccccc1)c1ccc(C)cc1O (configuration not stated) | i | 0.92
C/C(Cn1cnc([N+](=O)[O-])n1)=N\NC(=O)c1ccccc1 | i | 3.5
COCCCNC(=S)N1CCN(C(=O)c2ccco2)CC1 | i | -0.45
O=[N+]([O-])c1cc(Br)c(O)c(/C=N/Nc2nnnn2-c2cccc3ccccc23)c1 | i | -2.7
CCCNC(=O)CSc1nc(Cc2ccccc2)nc2ccccc12 | i | 1.5
Cc1ccccc1N(C(=O)Cc1cccs1)C(C(=O)NCC1CCCO1)c1cccnc1 (configuration not stated) | i | 0.26
CS(=O)(=O)N(CC(=O)Nc1ccccc1C(=O)N1CCOCC1)c1cccc([N+](=O)[O-])c1 | i | -0.83
COc1cc(OC)cc(C(=O)O/N=C(\N)c2ccncc2)c1 | i | 0.62
CCCc1ncc(C(O)(c2ccccc2)c2ccccc2)n1C | i | -0.74
COc1cccc(-c2[nH]nc3c2C(c2ccoc2)C(C#N)=C(N)O3)c1 (configuration not stated) | i | 1.8
CN1CCCC(OC(=O)c2ccc(C(C)(C)C)cc2)C1 (configuration not stated) | i | -1.4
CCC(C)(C)C1CCC(=NNC(=S)Nc2ccccc2)CC1 (configuration not stated) | i | -0.31
CC(=O)OCCN(CCOC(C)=O)c1c(C)[nH]c(=O)[nH]c1=O | i | -0.23
CC(C)(C)n1nnnc1C(c1ccc(Cl)cc1)N(Cc1cccnc1)Cc1ccco1 (configuration not stated) | -6.2* | 0.35*
O=C(CCl)N(c1ccccc1)C1CCCCC1 | i | -0.41
COc1cccc(C(=O)NCC2CCCN(C(=O)c3ccc(C=O)cc3)C2)c1OC (configuration not stated) | i | 2.5
O=C(NCc1ccccc1)c1onc(CSc2ccccc2)c1C(=O)NCc1ccccc1 | i | 0.32
Cc1c(N(C)S(=O)(=O)c2cccc(C(=O)NC(C)C)c2)c(=O)n(-c2ccccc2)n1C | i | 0.01

Compound activity deposited in PubChem by Johns Hopkins Ion Channel Center.
